Screening results as filed in PubChem.
UUG fidelity = modulators of start codon recognition fidelity in yeast. S. cerevisiae UUG-firefly luciferase reporter, luminescence/redox ratio. activity score, % at 18.7 µM. 350,000 tested, 0.13% active;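 active means replicate mean at a twofold rise or more, about +100% in these data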;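 further: firefly luciferase made from a UUG start codon reports start codon fidelity; reporter light over untreated wells divided by growth signal over untreated wells; some hits fall short of that in this replicate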
HIV Env fusion = blocks HIV Env-driven cell-cell fusion; HeLa-JRFL Env/CEM21 cell fusion, luciferase; inhibition, % at 12.3 µM; 360,000 tested, 1.1% active; AID 651610;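 active means mean replicate inhibition score of at least 50 and every replicate individually at or above 50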;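 further: 0% = plate neutral controls and 100% = maraviroc near 300 nM; one replicate is shown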
An asterisk follows results filed as active; [ ] = remark or other dose.

Sample of the layout:
How did COc1ccc(S(=O)(=O)Nc2ccc3c(c2)CC(=O)N([C@@H](C)CO)C[C@H](C)[C@H](CN(C)Cc2ccc(Cl)c(Cl)c2)O3)cc1 do in these assays?
UUG fidelity: 4.8; HIV Env fusion: -18.8[16.7 µM]

How did COc1ccc(C#Cc2ccc3c(c2)O[C@@H](CN(C)S(=O)(=O)c2ccccc2F)[C@H](C)CN([C@@H](C)CO)S3(=O)=O)cc1 do in these assays?
UUG fidelity: 14.5; HIV Env fusion: 25.9[16.7 µM]

How did C[C@@H]1CCCCO[C@H](CN(C)Cc2ccc(Cl)c(Cl)c2)[C@@H](C)CN([C@H](C)CO)C(=O)c2cc(NC(=O)Nc3ccccc3)ccc2O1 do in these assays?
UUG fidelity: 4.1; HIV Env fusion: 4.7[16.7 µM]

What do the screens show for `CN(C)CC(=O)N[C@H]1CC[C@@H](CCn2cc(CN(C)C)nn2)O[C@@H]1CO`?
UUG fidelity: -3.3; HIV Env fusion: -4.0[16.7 µM]

How did O=C(NCC[C@H]1CC[C@H](NC(=O)c2cnccn2)[C@@H](CO)O1)c1ccc2c(c1)OCO2 do in these assays?
UUG fidelity: 1.3; HIV Env fusion: 11.3[16.7 µM]

Results, from the first entry:
How did COc1ccc(S(=O)(=O)Nc2ccc3c(c2)CC(=O)N([C@@H](C)CO)C[C@H](C)[C@H](CN(C)Cc2ccc(Cl)c(Cl)c2)O3)cc1 do in these assays?
UUG fidelity: 4.8; HIV Env fusion: -18.8[16.7 µM]

How did COc1ccc(C#Cc2ccc3c(c2)O[C@@H](CN(C)S(=O)(=O)c2ccccc2F)[C@H](C)CN([C@@H](C)CO)S3(=O)=O)cc1 do in these assays?
UUG fidelity: 14.5; HIV Env fusion: 25.9[16.7 µM]

How did C[C@@H]1CCCCO[C@H](CN(C)Cc2ccc(Cl)c(Cl)c2)[C@@H](C)CN([C@H](C)CO)C(=O)c2cc(NC(=O)Nc3ccccc3)ccc2O1 do in these assays?
UUG fidelity: 4.1; HIV Env fusion: 4.7[16.7 µM]

What do the screens show for `CN(C)CC(=O)N[C@H]1CC[C@@H](CCn2cc(CN(C)C)nn2)O[C@@H]1CO`?
UUG fidelity: -3.3; HIV Env fusion: -4.0[16.7 µM]

How did O=C(NCC[C@H]1CC[C@H](NC(=O)c2cnccn2)[C@@H](CO)O1)c1ccc2c(c1)OCO2 do in these assays?
UUG fidelity: 1.3; HIV Env fusion: 11.3[16.7 µM]

How did C[C@@H]1CN([C@H](C)CO)C(=O)Cc2cc(NS(=O)(=O)c3cccs3)ccc2O[C@@H]1CN(C)C(=O)Nc1cccc2ccccc12 do in these assays?
UUG fidelity: 9.5; HIV Env fusion: 5.5[16.7 µM]

What do the screens show for `C[C@H]1CN([C@@H](C)CO)C(=O)c2cc(NC(=O)Nc3ccc4c(c3)OCO4)ccc2O[C@@H]1CN(C)Cc1ccc(Oc2ccccc2)cc1`?
UUG fidelity: 4.2; HIV Env fusion: -8.8[16.7 µM]

Results for CCCC#Cc1ccc2c(c1)O[C@H](CN(C)C(=O)C1CC1)[C@H](C)CN([C@@H](C)CO)S2(=O)=O ?
UUG fidelity: 15.0; HIV Env fusion: -7.9[16.7 µM]

Results for C[C@H]1CN([C@@H](C)CO)S(=O)(=O)c2ccc(C#CC3CCCC3)cc2O[C@H]1CN(C)CC1CC1 ?
UUG fidelity: 15.0; HIV Env fusion: 21.4[16.7 µM]

Results for CC(=O)N[C@@H]1CC[C@@H](CCNC(=O)C2CCC2)O[C@@H]1CO ?
UUG fidelity: -4.9; HIV Env fusion: -4.7[16.7 µM]

What do the screens show for `Cc1noc(C)c1S(=O)(=O)Nc1ccc2c(c1)C(=O)N([C@@H](C)CO)C[C@H](C)[C@@H](CN(C)C(=O)NC1CCCCC1)OCCCC[C@H](C)O2`?
UUG fidelity: 13.4; HIV Env fusion: -12.0[16.7 µM]

Results for C[C@@H]1CN([C@@H](C)CO)C(=O)c2cc(C#CC3(O)CCCC3)cnc2O[C@@H]1CN(C)S(C)(=O)=O ?
UUG fidelity: -3.8; HIV Env fusion: -41.1[16.7 µM]

What do the screens show for `COc1ccc(S(=O)(=O)N(C)C[C@H]2Oc3ccc(NS(=O)(=O)c4ccc(C)cc4)cc3CC(=O)N([C@@H](C)CO)C[C@@H]2C)cc1`?
UUG fidelity: 14.1; HIV Env fusion: 9.8[16.7 µM]

What do the screens show for `C[C@@H]1CN([C@H](C)CO)C(=O)Cc2cc(NC(=O)Nc3ccc4c(c3)OCO4)ccc2O[C@@H]1CN(C)C(=O)Nc1ccc(F)cc1`?
UUG fidelity: 4.2; HIV Env fusion: -11.6[16.7 µM]

What do the screens show for `CC(C)NC(=O)N[C@H]1C=C[C@H](CC(=O)NCCCN(C)C)O[C@H]1CO`?
UUG fidelity: -8.4; HIV Env fusion: 0.8[16.7 µM]

How did CCCNC(=O)C[C@@H]1C[C@H]2c3cc(NC(=O)Cc4ccncc4)ccc3O[C@H]2[C@@H](CO)O1 do in these assays?
UUG fidelity: 6.2; HIV Env fusion: 93.3*[16.7 µM]

Results for Cc1ccc(S(=O)(=O)N(C)C[C@H]2OCCCC[C@H](C)Oc3ccc(NC(=O)NC4CCCCC4)cc3C(=O)N([C@@H](C)CO)C[C@H]2C)cc1 ?
UUG fidelity: -19.5; HIV Env fusion: -38.5[16.7 µM]

What do the screens show for `C[C@@H]1CCCCO[C@@H](CN(C)C(=O)c2ccncc2)[C@H](C)CN([C@@H](C)CO)C(=O)c2cc(NS(=O)(=O)c3cccs3)ccc2O1`?
UUG fidelity: 10.2; HIV Env fusion: 7.4[16.7 µM]

Results for C[C@@H]1CN([C@H](C)CO)C(=O)Cc2cc(NC(=O)C3CC3)ccc2O[C@@H]1CN(C)C(=O)Nc1ccc2c(c1)OCO2 ?
UUG fidelity: 7.9; HIV Env fusion: -2.8[16.7 µM]

What do the screens show for `CO[C@@H]1CN(C)C(=O)c2ccc(NC(=O)NC(C)C)cc2OC[C@H](C)N(CCC(F)(F)F)C[C@@H]1C`?
UUG fidelity: 0.1; HIV Env fusion: -8.0[16.7 µM]

What do the screens show for `CN(C)C(=O)C[C@H]1CC[C@@H]2[C@H](COC[C@H](O)CN2Cc2nccs2)O1`?
UUG fidelity: -12.8; HIV Env fusion: 0.1[16.7 µM]

How did C[C@@H]1CCCCO[C@H](CN(C)S(=O)(=O)c2ccc(F)cc2)[C@@H](C)CN([C@@H](C)CO)C(=O)c2cc(NS(=O)(=O)c3ccccc3)ccc2O1 do in these assays?
UUG fidelity: -7.7; HIV Env fusion: -53.5[16.7 µM]

How did Cc1noc(C)c1NC(=O)N(C)C[C@H]1Oc2ccc(NC(=O)Nc3ccccc3)cc2CC(=O)N([C@@H](C)CO)C[C@H]1C do in these assays?
UUG fidelity: 2.7; HIV Env fusion: 13.2[16.7 µM]

Results for C[C@@H]1CCCCO[C@@H](CN(C)C(=O)Nc2cccc3ccccc23)[C@H](C)CN([C@@H](C)CO)C(=O)c2cc(NS(C)(=O)=O)ccc2O1 ?
UUG fidelity: 23.3; HIV Env fusion: 21.2[16.7 µM]

How did Cc1noc(C)c1S(=O)(=O)N(C)C[C@@H]1OCCCC[C@@H](C)Oc2ccc(NC(=O)C3CCCCC3)cc2C(=O)N([C@@H](C)CO)C[C@H]1C do in these assays?
UUG fidelity: 4.4; HIV Env fusion: -117.4[16.7 µM]

How did C[C@@H]1CCCCO[C@H](CN(C)Cc2ccc(C(F)(F)F)cc2)[C@@H](C)CN([C@@H](C)CO)C(=O)c2cc(NC(=O)Nc3ccccc3)ccc2O1 do in these assays?
UUG fidelity: 7.4; HIV Env fusion: -5.7[16.7 µM]

How did C[C@@H]1CCCCO[C@@H](CN(C)Cc2ccncc2)[C@@H](C)CN([C@H](C)CO)C(=O)c2cc(NS(=O)(=O)c3cccs3)ccc2O1 do in these assays?
UUG fidelity: -4.7; HIV Env fusion: 3.7[16.7 µM]

Results for COc1ccc(NC(=O)Nc2ccc3c(c2)C(=O)N([C@H](C)CO)C[C@@H](C)[C@H](CN(C)Cc2ccc(C(=O)O)cc2)O3)cc1 ?
UUG fidelity: -1.0; HIV Env fusion: 1.0[16.7 µM]

How did CO[C@H]1CN(C)C(=O)c2ccc(NC(=O)C3CC3)cc2OC[C@H](C)N(C(=O)c2cnccn2)C[C@@H]1C do in these assays?
UUG fidelity: -0.9; HIV Env fusion: -11.4[16.7 µM]

Results for CO[C@@H]1CN(C)C(=O)c2cc(NC(=O)Nc3cccc(F)c3)ccc2OC[C@H](C)N(C)C[C@@H]1C ?
UUG fidelity: 12.0; HIV Env fusion: -3.4[16.7 µM]

How did COCC#Cc1cnc2c(c1)C(=O)N([C@H](C)CO)C[C@H](C)[C@@H](CN(C)C(=O)C1CCOCC1)O2 do in these assays?
UUG fidelity: 8.1; HIV Env fusion: 1.3[16.7 µM]

How did CO[C@H]1CN(C)C(=O)c2cc(NC(=O)Nc3c(C)noc3C)ccc2OC[C@H](C)NC[C@H]1C do in these assays?
UUG fidelity: -3.7; HIV Env fusion: 17.6[16.7 µM]

How did CCCC#Cc1ccc2c(c1)O[C@H](CN(C)C(=O)c1ccncc1)[C@@H](C)CN([C@@H](C)CO)S2(=O)=O do in these assays?
UUG fidelity: -14.3; HIV Env fusion: 21.8[16.7 µM]

How did Cc1noc(C)c1NC(=O)Nc1ccc2c(c1)CC(=O)N([C@@H](C)CO)C[C@H](C)[C@@H](CN(C)S(=O)(=O)c1c(C)noc1C)O2 do in these assays?
UUG fidelity: 2.2; HIV Env fusion: 10.3[16.7 µM]

Results for CC(C)NC(=O)N[C@H]1CC[C@H](CCNS(=O)(=O)c2ccc(Cl)cc2)O[C@H]1CO ?
UUG fidelity: -2.9; HIV Env fusion: 7.1[16.7 µM]

Results for C[C@@H]1CN([C@@H](C)CO)C(=O)c2cc(-c3cncnc3)cnc2O[C@@H]1CN(C)C(=O)Cc1cccnc1 ?
UUG fidelity: 3.1; HIV Env fusion: -46.4[16.7 µM]

What do the screens show for `COc1ccc(S(=O)(=O)N(C)C[C@H]2OCCCC[C@H](C)Oc3ccc(NC(=O)Nc4ccc(C(F)(F)F)cc4)cc3C(=O)N([C@@H](C)CO)C[C@H]2C)cc1`?
UUG fidelity: -16.7; HIV Env fusion: -12.5[16.7 µM]

How did CCCNC(=O)N(C)C[C@H]1Oc2ncc(C#CC3CC3)cc2C(=O)N([C@H](C)CO)C[C@@H]1C do in these assays?
UUG fidelity: -12.5; HIV Env fusion: -5.9[16.7 µM]

Results for COc1ccc(CN(C)C[C@@H]2OCCCC[C@@H](C)Oc3ccc(N(C)C)cc3C(=O)N([C@@H](C)CO)C[C@H]2C)cc1 ?
UUG fidelity: 11.6; HIV Env fusion: -6.0[16.7 µM]

What do the screens show for `C[C@H]1CCCCO[C@@H](CN(C)S(=O)(=O)c2cn(C)cn2)[C@@H](C)CN([C@@H](C)CO)C(=O)c2cc(NC(=O)NC3CCCCC3)ccc2O1`?
UUG fidelity: -2.4; HIV Env fusion: -15.0[16.7 µM]

How did C[C@@H]1CCCCO[C@H](CN(C)S(=O)(=O)c2ccc(Cl)cc2)[C@@H](C)CN([C@H](C)CO)C(=O)c2cc(NC(=O)Nc3ccccc3)ccc2O1 do in these assays?
UUG fidelity: -5.7; HIV Env fusion: -16.0[16.7 µM]

How did O=C(C[C@@H]1C=C[C@H](NC(=O)C2CC2)[C@@H](CO)O1)Nc1ccccc1 do in these assays?
UUG fidelity: -20.8; HIV Env fusion: 17.8[16.7 µM]

Results for COCC(=O)N(C)C[C@@H]1Oc2ncc(C#Cc3ccccc3)cc2C(=O)N([C@H](C)CO)C[C@H]1C ?
UUG fidelity: 1.2; HIV Env fusion: -8.9[16.7 µM]

What do the screens show for `CCCC#Cc1cnc2c(c1)C(=O)N([C@H](C)CO)C[C@@H](C)[C@H](CN(C)C(=O)Cc1ccccc1)O2`?
UUG fidelity: 10.9; HIV Env fusion: 6.5[16.7 µM]

Results for COc1cccc(NC(=O)N(C)C[C@@H]2Oc3ncc(C4=CCCCC4)cc3C(=O)N([C@H](C)CO)C[C@H]2C)c1 ?
UUG fidelity: -4.3; HIV Env fusion: -11.9[16.7 µM]

How did C[C@H](CO)N1C[C@H](C)[C@H](CN(C)C(=O)c2ccccc2)OCCCC[C@H](C)Oc2ccc(NS(=O)(=O)c3cn(C)cn3)cc2C1=O do in these assays?
UUG fidelity: 6.1; HIV Env fusion: -7.7[16.7 µM]

Results for CCC(=O)N1C[C@@H](C)[C@@H](OC)CN(C)C(=O)c2ccc(NC(=O)COC)cc2OC[C@@H]1C ?
UUG fidelity: -11.6; HIV Env fusion: -3.3[16.7 µM]

What do the screens show for `COc1ccc(NC(=O)Nc2ccc3c(c2)C(=O)N([C@H](C)CO)C[C@@H](C)[C@H](CN(C)S(=O)(=O)c2c(C)noc2C)OCCCC[C@@H](C)O3)cc1`?
UUG fidelity: -3.0; HIV Env fusion: -1.2[16.7 µM]

How did C[C@@H]1CN([C@@H](C)CO)C(=O)c2cccc(NC(=O)C3CCOCC3)c2O[C@@H]1CN(C)Cc1ccncc1 do in these assays?
UUG fidelity: -9.2; HIV Env fusion: -5.6[16.7 µM]

What do the screens show for `C[C@@H]1CN([C@@H](C)CO)C(=O)c2cc(NS(C)(=O)=O)ccc2O[C@@H](C)CCCCO[C@@H]1CN(C)Cc1ccc(C(F)(F)F)cc1`?
UUG fidelity: 9.4; HIV Env fusion: 7.7[16.7 µM]

How did N#C[C@H]1[C@@H](c2ccc(C3=CCCC3)cc2)[C@H](CO)N1C(=O)c1cccc(F)c1 do in these assays?
UUG fidelity: 14.9; HIV Env fusion: -2.6[16.7 µM]

What do the screens show for `Cc1noc(C)c1NC(=O)Nc1ccc2c(c1)C(=O)N([C@@H](C)CO)C[C@@H](C)[C@H](CN(C)C(=O)c1ccccc1)OCCCC[C@H](C)O2`?
UUG fidelity: 3.8; HIV Env fusion: 14.8[16.7 µM]

Results for COc1ccc(NC(=O)N(C)C[C@H]2Oc3ccc(NS(=O)(=O)c4ccc(Cl)cc4)cc3C(=O)N([C@H](C)CO)C[C@@H]2C)cc1 ?
UUG fidelity: 15.5; HIV Env fusion: 6.2[16.7 µM]

An excerpt. The share of hits here may be higher or lower than overall.
